Assay outcomes deposited in PubChem by several laboratories.
GLD-1 TGE inh = GLD-1-TGE RNA interaction inhibition (C. elegans); purified GLD-1 + fluorescein TGE RNA, fluorescence polarization; inhibition, % at 5.96 µM; actives 0.44% (n = 320,000); AID 2280;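 active means percent inhibition above a per-plate cutoff, the plate mean of test compounds plus 3 SD, cut at about 30% in these data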;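 further: 0% = DMSO wells with GLD-1 and probe and 100% = wells lacking GLD-1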
CIT2-GFP yeast = alters CIT2-GFP fluorescence in TOR pathway yeast screen. GFP response vs DMSO, % at 10 µM. AID 2029. S. cerevisiae CIT2-GFP strain, flow cytometry, 3 h; 100 means same as DMSO wells. actives 0.065% (n = 320,000);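 active means GFP response relative to DMSO above a set limit, near the screen mean plus 3 SD, cut at about 150% in these data; inconclusive means Fewer than 70 cells measured for a yeast strain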;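 further: ratio of well median GFP fluorescence to mean of DMSO wells on the plate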
VLA-4 inh = inhibition in a human VLA-4 binding assay; P13612; VLA-4 expressing cells, ligand binding flow cytometry; inhibition, % (about 7 µM as worked out from the volumes in the protocol); actives 0.2% (n = 330,000); AID 2557; in the data active means inhibition above about 50%
MEX-5 binding = C. elegans MEX-5 TCR-2 RNA binding activity | actives 0.38% (n = 300,000) | activity score (negative = inhibition of binding), % at 10 µM | Q9XUB2 | MEX-5/FITC-TCR2 RNA binding, fluorescence polarization; active compounds read low;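 active means inhibition past about -25% in most replicates, and total fluorescence under double the plate's negative control median, limit read from the data; inconclusive means replicates evenly split on the limit, or fluorescence at least double controls; inactive means too little inhibition in most replicates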;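 further: 0% = DMSO and -100% = 5 µM competing unlabeled TCR2 RNA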
Fam108B inh = Fam108B inhibition, counter-screen for RBBP9 inhibitors; recombinant Fam108B, FP-Rh probe fluorescence polarization; AID 1947; inhibition, % at 9.51 µM; actives 0.33% (n = 300,000);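 active means inhibition above the screen mean inhibition plus 3 SD, computed separately per campaign, cut at about 18% in these data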;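 further: inhibitors lower polarization as less probe binds the enzyme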
AGP1 TOR yeast = modulators of TOR pathway AGP1-GFP in S. cerevisiae; S. cerevisiae AGP1-GFP multiplex flow cytometry, 3 h; GFP as percent of DMSO wells; GFP response vs DMSO, % at 10 µM; AID 2066; actives 0.02% (n = 320,000);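 active means GFP response relative to DMSO above a set limit, near screen average plus 3 SD, cut at about 150% in these data; inconclusive means fewer than 70 cells counted for the yeast strain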;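 further: median GFP channel fluorescence of the gated AGP1 strain per well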
GRK2 aptamer HTS = blocks RNA aptamer binding to human GRK2 | P25098 | bead flow cytometry, FAM-aptamer displacement from GRK2 | inhibition of aptamer binding, % at 10 µM | actives 0.59% (n = 330,000) | AID 488847;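 active means inhibition of aptamer binding above 40%, roughly 3 SD of noise, on plates passing a quality check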;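 further: median bead fluorescence of bound FAM aptamer so fluorescent compounds give negative values; no value below 0 was filed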
Target sequence (P25098 whole entry, looked up): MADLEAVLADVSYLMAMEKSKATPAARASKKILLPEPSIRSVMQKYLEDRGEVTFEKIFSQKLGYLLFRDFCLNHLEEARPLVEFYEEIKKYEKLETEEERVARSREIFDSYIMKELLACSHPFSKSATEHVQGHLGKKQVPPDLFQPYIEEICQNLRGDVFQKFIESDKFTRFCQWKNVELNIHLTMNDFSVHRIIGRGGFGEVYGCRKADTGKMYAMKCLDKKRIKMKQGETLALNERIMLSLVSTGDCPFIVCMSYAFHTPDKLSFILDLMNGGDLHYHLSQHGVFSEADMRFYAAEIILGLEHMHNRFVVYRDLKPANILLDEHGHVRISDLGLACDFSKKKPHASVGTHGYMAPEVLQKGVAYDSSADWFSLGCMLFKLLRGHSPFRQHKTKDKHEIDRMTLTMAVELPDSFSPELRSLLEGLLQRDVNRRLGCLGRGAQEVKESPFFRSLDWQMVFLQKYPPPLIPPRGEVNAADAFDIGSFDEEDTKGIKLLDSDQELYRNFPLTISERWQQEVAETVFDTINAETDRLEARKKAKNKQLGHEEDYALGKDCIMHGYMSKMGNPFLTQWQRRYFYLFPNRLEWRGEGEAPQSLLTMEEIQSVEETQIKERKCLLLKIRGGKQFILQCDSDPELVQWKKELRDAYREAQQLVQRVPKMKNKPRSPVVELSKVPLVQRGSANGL
Numbers without * were called inactive; ? = inconclusive; / = no result given; & = joins results of further samples. These rows are one share of the data (hit frequency here may not be typical).

Short keys: A = GLD-1 TGE inh; B = CIT2-GFP yeast; C = VLA-4 inh; D = MEX-5 binding; E = Fam108B inh; F = AGP1 TOR yeast; G = GRK2 aptamer HTS
1: CC(C)c1ccc(NC(=O)CN(Cc2ccccc2)S(C)(=O)=O)cc1
  A = -6; B = 90; C = 9; D = -0.4; E = 3; F = 91; G = 3

2: CNC(=O)COC(=O)c1ccc([N+](=O)[O-])cc1Cl
  A = 7; B = 102; C = 25; D = 0.3; E = -3; F = 96; G = 2

3: CC1CC1C(=O)OCC(=O)NC(=O)NCc1ccco1 (stereo unspecified)
  A = 3; B = 96; C = 6; D = 0.2; E = 4; F = 102; G = 3

4: CCCNC(=O)CCC(=O)Nc1ncc(-c2ccc(C)cc2)n1C
  A = 0; B = 94; C = 3; D = -0.2; E = -3; F = 101; G = 0

5: CCCN1CCN(C(=O)CCCNC(=O)Cn2cnc3sc(C)c(C)c3c2=O)CC1
  A = 6; B = /; C = -7; D = 2.3; E = -1; F = 106; G = 22

6: CC(=O)Nc1ccc2nc(NC(=O)COc3ccccc3Cl)sc2c1
  A = 2; B = 102; C = -17; D = -0.6; E = -1; F = 106; G = 2

7: CNC(=O)c1sc(-c2cccnc2)nc1C
  A = -6; B = 115; C = -9; D = -1.3; E = 0; F = 110; G = 0

8: CN1C(=O)CS(=O)c2ccc(C(=O)NC3CC3)cc21 (stereo unspecified)
  A = 7; B = 101; C = -5; D = 0.0; E = 1; F = 103; G = 2

9: O=C(CSc1nc(O)cc(=O)[nH]1)N1c2ccccc2CCc2ccccc21
  A = 3; B = 100; C = 6; D = 4.6; E = -3; F = 100; G = 0

10: CCN(C(=O)c1nn(-c2ccc(OC)cc2)c(=O)c2c1c1ccccc1n2C)c1ccc(OC)cc1
  A = 2; B = 101; C = -3; D = -2.3; E = 1; F = 95; G = 0

11: COc1c(-c2ccc(O)cc2)oc2cc(O)cc(O)c2c1=O
  A = 4; B = 91; C = 14; D = /; E = 3; F = 95; G = 28

12: CCN(CC)C(=O)CNc1ccc(C(F)(F)F)cc1[N+](=O)[O-]
  A = 0; B = 105; C = 14; D = ?; E = 0; F = 107; G = 3

13: COc1ccccc1CNC(=O)c1nn(-c2ccc(C)cc2)c(=O)c2c1c1ccccc1n2C
  A = -1; B = 97; C = 8; D = 0.8; E = -10; F = 101; G = 0

14: N#Cc1ccc(COC(=O)c2ccc3c(=O)[nH]c(CN4CCOCC4)nc3c2)cc1
  A = 2; B = 109; C = 12; D = 0.0; E = -2; F = 109; G = 1

15: O=C(Nc1ccc(Cl)c(Cl)c1)Nc1nnc(-c2ccncc2)s1
  A = 6; B = 94; C = 14; D = /; E = 0; F = 96; G = 1

16: NCCc1ccc(O)c(O)c1
  A = -3; B = 75; C = 0; D = -14; E = 2; F = 80; G = 3

17: CCOC(=O)c1cc(C(C)=O)c(=O)[nH]c1C
  A = 7; B = 96; C = 3; D = -3.2; E = 1; F = 90; G = 3

18: CC(=O)Nc1ccc2nc(NC(=O)CCc3ccccc3)sc2c1
  A = 0; B = 90; C = 8; D = 3.2; E = -1; F = 98; G = 0

19: O=C(Nc1ccc(Br)cn1)c1cccc(-c2cc3ccccc3oc2=O)c1
  A = 1; B = 90; C = 3; D = 3.5; E = -40; F = 99; G = 0

20: CC(/C=N/n1c(-c2cccnc2)n[nH]c1=S)=C\c1ccccc1
  A = -7; B = 94; C = 0; D = 2.3; E = 0; F = 99; G = 4

21: COc1ccc(CCNC(=O)c2cnn3c(C(F)F)cc(C)nc23)cc1OC
  A = 4; B = 92; C = 26; D = 0.7; E = 0; F = 106; G = 0

22: Cc1ccc(NC2c3ncccc3C(=O)N2c2ccccc2C)cc1C (stereo unspecified)
  A = 6; B = 98; C = 4; D = -2.2; E = 0; F = 102; G = 5

23: C1=C(c2ccccc2)Nc2ccccc2N=C1c1ccccc1
  A = -3; B = 82; C = 9; D = 1.6; E = 7; F = 90; G = 2

24: NCCS
  A = 0; B = 110; C = 10; D = 2.3; E = 2; F = 101; G = 1

25: O=C(Nc1ccccc1N1CCCCC1)c1cccc([N+](=O)[O-])c1
  A = 7; B = 94; C = 15; D = 1.6; E = 0; F = 98; G = 0

Next part.
Short keys: A = GLD-1 TGE inh; B = CIT2-GFP yeast; C = VLA-4 inh; D = MEX-5 binding; E = Fam108B inh; F = AGP1 TOR yeast; G = GRK2 aptamer HTS
26: Cc1csc(NC(=O)c2cc(-c3ccco3)nc3ccccc23)n1
  A = -4; B = 95; C = 1; D = -0.5; E = 4; F = 95; G = 11

27: COc1cc(C)c(Cc2cnc(N)nc2N)cc1OC
  A = 6; B = 88; C = 0; D = 0.8; E = 1; F = 94; G = 2

28: Cc1nn(Cc2ccc(F)cc2)c(C)c1NC(=O)c1cc(-c2ccc3c(c2)OCO3)on1
  A = 4; B = 99; C = -7; D = 1.7; E = -12; F = 94; G = 0

29: COc1nc(-c2ccccc2)ccc1-c1noc(COc2ccccc2)n1
  A = 7; B = 102; C = -6; D = /; E = -9; F = 100; G = 3

30: CCOC(=O)N1CCN(C(=O)CN(C2CCCCC2)S(C)(=O)=O)CC1
  A = 3; B = 104; C = 5; D = 1.9; E = 1; F = 110; G = 1

31: CCOC(=O)C1CCCCN1Cc1ccc(F)cc1 (stereo unspecified)
  A = 3; B = 104; C = 2; D = 2.6; E = 2; F = 97; G = 75*

32: CCCCn1nnnc1NCc1cccs1
  A = -1; B = 99; C = 0; D = 0.6; E = 4; F = 101; G = 1

33: COc1cc(NC(=O)c2ccnc(N)c2)cc(C(=O)Nc2cccc(C(F)(F)F)c2)c1
  A = -3; B = 96; C = 22; D = -3.8; E = -11; F = 84; G = 0

34: Cc1sc2ncnc(N3CCOCC3)c2c1C
  A = 4; B = 107; C = 17; D = 0.2; E = 0; F = 107; G = 0

35: COc1ccc(OC)c(-n2c(-c3cccc(O)c3)n[nH]c2=S)c1
  A = 6; B = /; C = 4; D = -2.1; E = -6; F = 92; G = 0

36: CCN(CC)CCNc1ccc(CO)c2sc3ccccc3c(=O)c12
  A = -4; B = 78; C = 10; D = -1.8; E = -1; F = 85; G = 1

37: CCOC(=O)c1cc(C(=O)NN)c(=O)[nH]c1C
  A = -4; B = 104; C = -20; D = 1.2; E = -4; F = 101; G = 0

38: N#Cc1ccc(C2=NC(C(F)(F)F)(C(F)(F)F)c3c(n(Cc4ccco4)c(=O)[nH]c3=O)N2)cc1
  A = 0; B = 100; C = 2; D = 2.6; E = -1; F = 98; G = 0

39: Nn1c(SCC(=O)Nc2ccc(S(N)(=O)=O)cc2)nnc1C(F)(F)F
  A = 7; B = 106; C = 1; D = 2.8; E = 6; F = 104; G = 0

40: OC(COCCOc1ccc(Br)cc1)CN1CCCCC1 (stereo unspecified)
  A = 2; B = 97; C = -3; D = 1.6; E = 6; F = 94; G = 0

41: C=CCSc1n[nH]c(-c2ccc(OC)cc2)n1
  A = 0; B = 114; C = -5; D = -1.6; E = 6; F = 103; G = 0

42: CC(C(O)c1ccc(O)cc1)N1CCC(Cc2ccccc2)CC1 (stereo unspecified)
  A = 3&9&4; B = 107&98&86; C = 13&33&3; D = 1.4&-4.3; E = -3&3; F = 107&98&89; G = 0&0&0

43: Nc1ccc2nc3c(=O)[nH]c(=S)[nH]c3nc2c1
  A = 172*; B = 103; C = -1; D = -47*; E = 29*; F = 102; G = 70*

44: CC(C)[C@H](NC(=O)Cc1ccccc1)C(=O)OCc1cc(=O)n2c(n1)sc1ccccc12
  A = -4; B = 103; C = 10; D = -3.2; E = 3; F = 98; G = 4

45: OCc1cccnc1
  A = 0; B = 103; C = 0; D = -0.2; E = 3; F = 93; G = 0

46: Cn1c(OCc2cccnc2)nc2c1c(=O)n(Cc1ccc(Br)cc1)c(=O)n2C
  A = 2; B = 92; C = -8; D = -1.7; E = 0; F = 92; G = 2

47: CCOc1ccc(C(=O)NC(=S)Nc2ccc(NC(=O)c3ccco3)cc2)cc1[N+](=O)[O-]
  A = 3; B = 97; C = 31; D = 0.3; E = -2; F = 93; G = 0

48: Cc1ccccc1OCC(=O)N/N=C/c1cn(C)c2ccccc12
  A = 5; B = 100; C = -4; D = 1.4; E = 0; F = 100; G = 1

49: O=C(CCC(=O)c1cccs1)NC(c1ccccc1)c1ccccc1
  A = -1; B = 106; C = 17; D = 2.2; E = 3; F = 102; G = 0

50: COc1ccc(CCN2C(=S)N(C)C(=O)C2CC(=O)Nc2ccc(OC)cc2)cc1 (stereo unspecified)
  A = -3; B = 96; C = 1; D = 1.1; E = 1; F = 104; G = 2

51: COC(=O)C1=C(C)Nc2nnnn2C1c1cccnc1 (stereo unspecified)
  A = -2; B = 94; C = 10; D = -5.4; E = -5; F = 92; G = 1

In a second layout: results already given
Each structure is followed by: GLD-1 TGE inh	CIT2-GFP yeast	VLA-4 inh	MEX-5 binding	Fam108B inh	AGP1 TOR yeast	GRK2 aptamer HTS
40. OC(COCCOc1ccc(Br)cc1)CN1CCCCC1 (stereo unspecified)
 : 2	97	-3	1.6	6	94	0
41. C=CCSc1n[nH]c(-c2ccc(OC)cc2)n1
 : 0	114	-5	-1.6	6	103	0
42. CC(C(O)c1ccc(O)cc1)N1CCC(Cc2ccccc2)CC1 (stereo unspecified)
 : 3&9&4	107&98&86	13&33&3	1.4&-4.3	-3&3	107&98&89	0&0&0
43. Nc1ccc2nc3c(=O)[nH]c(=S)[nH]c3nc2c1
 : 172*	103	-1	-47*	29*	102	70*
44. CC(C)[C@H](NC(=O)Cc1ccccc1)C(=O)OCc1cc(=O)n2c(n1)sc1ccccc12
 : -4	103	10	-3.2	3	98	4
45. OCc1cccnc1
 : 0	103	0	-0.2	3	93	0
46. Cn1c(OCc2cccnc2)nc2c1c(=O)n(Cc1ccc(Br)cc1)c(=O)n2C
 : 2	92	-8	-1.7	0	92	2
47. CCOc1ccc(C(=O)NC(=S)Nc2ccc(NC(=O)c3ccco3)cc2)cc1[N+](=O)[O-]
 : 3	97	31	0.3	-2	93	0
48. Cc1ccccc1OCC(=O)N/N=C/c1cn(C)c2ccccc12
 : 5	100	-4	1.4	0	100	1
49. O=C(CCC(=O)c1cccs1)NC(c1ccccc1)c1ccccc1
 : -1	106	17	2.2	3	102	0
50. COc1ccc(CCN2C(=S)N(C)C(=O)C2CC(=O)Nc2ccc(OC)cc2)cc1 (stereo unspecified)
 : -3	96	1	1.1	1	104	2
51. COC(=O)C1=C(C)Nc2nnnn2C1c1cccnc1 (stereo unspecified)
 : -2	94	10	-5.4	-5	92	1
